Ba CapD inh: CapD enzyme inhibition; purified CapD enzyme, fluorescence intensity read-out; active compounds read low; some hits fall short of the stated cut; 140,000 tested, 0.23% active; z-score (no concentration beside the values);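 active = z-score under -4 in either of two replicates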;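 also: stock transfer was 100 nL into about 40 µL; score is relative to mean and spread of the plate; one replicate is shown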
AID504770: growth inhibitors of E. coli YBA685 in a screen for V. cholerae RctB (chromosome II replication) inhibitors | E. coli YBA685 rctB-dependent plasmid, OD600 growth, 3 h; active compounds read low | z-score (no concentration beside the values) | 130,000 tested, 0.27% active | AID 504770;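 active = z-score under -2 on both plates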;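 also: wells of about 30 µL received 100 nL stock; score is relative to mean and SD of the test wells; the first replicate is given; strong numbers were not always called active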
* = called active by the depositor; · = not tested or not shown; & = joins results of further samples.

Order of values – Ba CapD inh	AID504770
- COc1ccc(C(=O)COC(=O)/C=C/c2cccc(C(F)(F)F)c2)cc1
→ -0.955	-0.1
- CCCCN1/C(=C\C=C\c2n(CCCS(=O)(=O)[O-])c3cc(C(=O)OCC)ccc3[n+]2CCCC)N(CC)c2cc(C(=O)OCC)ccc21
→ 2.03	·
- COc1ccccc1NC(=O)Cn1nc(C(F)(F)F)n(N)c1=S
→ 0.755	1.05
- COc1cc(/C=C2/SC(N)=NC2=O)ccc1OC(=O)c1ccccc1Cl
→ 0.52	·
- N#Cc1c(SCC(N)=O)nsc1SCC(N)=O
→ ·	0
- COc1cccc(C(=O)N2N=C(c3ccc(Br)cc3)CC2(O)C(F)(F)F)c1 (stereo not given)
→ -0.645	·
- Nc1ncnc2c1ncn2[C@@H]1O[C@H](COP(=O)(O)O)[C@@H](O)[C@H]1O
→ 0.28	·
- Nc1ncnc2c1ncn2CCNCCc1ccccc1
→ 1.25	-0.15
- COc1ccc(C2C(C#N)=C(N)N(c3ccc([N+](=O)[O-])cc3)C3=C2C(=O)CC(C)(C)C3)cc1OC (stereo not given)
→ -0.66	·
- CC(=O)C1=NN(c2ccc(C)cc2)C2(S1)SC(c1ccc(C)cc1)(c1ccc(C)cc1)c1ccccc12 (stereo not given)
→ -0.28	·
- CC(Sc1nnc(-c2ccccc2)o1)C(=O)N(C)c1ccccc1 (stereo not given)
→ ·	-1.2
- Cn1nc(C(=O)OCc2cc(Cl)c3c(c2)OCO3)c2ccccc2c1=O
→ ·	-1.5
- O=C(NNC(=O)C1CCCN1Sc1ncccc1[N+](=O)[O-])c1cnn(-c2ccc([N+](=O)[O-])cc2)c1C(F)(F)F (stereo not given)
→ 2.96	·
- COc1ccc(N=Cc2c(O)[nH]c3ccccc23)cc1
→ -1.71	-1.05
- CCCCCC1CCC(c2ccc(NC(=O)c3cccs3)cc2)CC1 (stereo not given)
→ -0.215	·
- CSc1nc2ccc(NC(=O)CCc3ccco3)cc2s1
→ ·	-0.25
- O=S(=O)(c1ccc(F)cc1)N1CCCCC1
→ ·	-0.75
- COc1cccc(C(=O)COC(=O)c2cncc(Br)c2)c1
→ ·	-0.6
- COCCNC(=O)Cc1nc2ccccc2n1CC(=O)NCc1ccc(Cl)cc1
→ ·	1.75
- NC(=O)C1CCCN(C(=O)Nc2ccc(F)cc2)C1 (stereo not given)
→ -0.265	-0.4

Look-ups from the entries so far:
`N#Cc1c(SCC(N)=O)nsc1SCC(N)=O` – AID504770: 0
`Nc1ncnc2c1ncn2[C@@H]1O[C@H](COP(=O)(O)O)[C@@H](O)[C@H]1O` – Ba CapD inh: 0.28

(continued)
Order of values – Ba CapD inh	AID504770
- O=C(NC1=NCCS1)C1c2ccccc2Oc2ccccc21
→ ·	1.45
- C1CCc2nnc(-c3nnc4n3CCCCC4)n2CC1
→ 0.16	·
- CC(C)(C)c1ccc(S(=O)(=O)Nc2ccc(O)c(C(=O)O)c2)cc1
→ -0.26	-0.7
- NC(Cc1ccc(OC(F)(F)C(F)(F)F)cc1)C(=O)O (stereo not given)
→ 0.995	-0.25
- CCC(C)Oc1ccc(/C=C2/NC(=O)NC2=O)cc1Br (stereo not given)
→ 7.32	0.5
- O/N=C/c1ccc(F)c(Cl)c1
→ -1.17	1.4
- Brc1c(CSc2nc3ccccc3s2)nc2sccn12
→ 0.08	·
- CC(=O)Nc1ccc(SCc2csc(C)n2)cc1
→ ·	0.45
- COc1ccc(OC)c(NC(=O)c2cc3nc(-c4cccs4)cc(C(F)(F)F)n3n2)c1
→ 0.055	·
- CN(C)Cc1ncccc1O
→ ·	0.95
- CCC1C(=O)N=C(SCC(=O)Nc2cccc3ccccc23)NC1=O (stereo not given)
→ ·	-0.6
- CCN1/C(=C/c2ccc3ccccc3[n+]2CC)Sc2cc(NC(C)=O)ccc21
→ -0.435	-1.1
- Cc1onc(-c2ccccc2Cl)c1C(=O)OCC(F)(F)F
→ ·	-0.25
- CC1(C)CC(=O)C(C2=NC3(CCCCCC3)Cc3ccccc32)=C(O)C1
→ -0.635	·
- Cc1ccc(S(=O)(=O)c2[nH]c(=S)sc2N2CCOCC2)cc1
→ ·	-0.2
- COC(=O)C1=C(C(=O)OC)SC2(S1)C(C(=O)OC)=C(C(=O)OC)SC1=C2c2cccc(C)c2N(C(=O)Cc2ccccc2)C1(C)C
→ -0.425	·
- COC(=O)c1ccccc1C(=O)N1CCOCCOCCOCC1
→ -0.27	-1.1
- CCOc1ccc(-c2cc(C(=O)N3CCc4ccccc4C3)c3ccccc3n2)cc1
→ -0.39	2.55
- NC(=O)Nc1ccc(C(=O)OCC(=O)N(Cc2ccccc2)C2CCS(=O)(=O)C2)cc1 (stereo not given)
→ ·	1.25
- CCN=C1S/C(=C2\C(=O)N(C(C)=O)c3ccccc32)C(=O)N1CC
→ ·	0.7

Part of the list above in another layout:
CC1(C)CC(=O)C(C2=NC3(CCCCCC3)Cc3ccccc32)=C(O)C1
- Ba CapD inh: -0.635
- AID504770: ·
Cc1ccc(S(=O)(=O)c2[nH]c(=S)sc2N2CCOCC2)cc1
- Ba CapD inh: ·
- AID504770: -0.2
COC(=O)C1=C(C(=O)OC)SC2(S1)C(C(=O)OC)=C(C(=O)OC)SC1=C2c2cccc(C)c2N(C(=O)Cc2ccccc2)C1(C)C
- Ba CapD inh: -0.425
- AID504770: ·
COC(=O)c1ccccc1C(=O)N1CCOCCOCCOCC1
- Ba CapD inh: -0.27
- AID504770: -1.1

More entries follow:
Order of values – Ba CapD inh	AID504770
- O=C(CSc1n[nH]c(=O)[nH]c1=O)Nc1ccccc1C(=O)c1ccccc1
→ ·	0.55
- COc1ccc(-c2[nH]c(-c3c4ccccc4c(Cl)c4ccccc34)nc2-c2ccccc2)cc1
→ 0.5	·
- Cc1ccc(-c2cc(C(=O)N(C)C3CCCCC3)[nH]n2)cc1C
→ 0.72	-1.3
- CCC1Oc2ccc(C)cc2N(CC(=O)NC2CCCCCCC2)C1=O (stereo not given)
→ -0.075	0.8
- Cc1ccc(C(=O)SC2=NCCS2)cc1
→ -2.04	0.15
- Cc1cc(C)nc(/N=C2\NC(=O)CC3C(=O)NCCN23)n1 (stereo not given)
→ ·	0.5
- O=C(O)C(C(=O)O)=C1C2CC3CC(C2)CC1C3
→ 0.115	0
- O=S(=O)(NCCc1ccc(Cl)cc1)c1ccc(F)c(F)c1
→ -1.23	0.55
- CCN(CC)CCCN1C(=O)C2C3C=CC(C3)C2C1=O (stereo not given)
→ ·	-0.6
- CCN(CC)C1c2cccc3cccc(c23)C1NS(=O)(=O)c1ccccc1 (stereo not given)
→ 0.135	·
- Cc1cc(C(=O)NNC(=O)c2nccc3ccccc23)nn1C
→ 0.025	·
- C(=C\C1N(Cc2ccccc2)CCN1Cc1ccccc1)/c1ccccc1
→ 0.09	·
- CCOC(=O)c1c(C)oc2cc(Br)c(OCC(=O)c3ccc(OC)cc3)cc12
→ 0.015	·
- O/N=C/c1ccc(-c2ccc(Br)cc2)o1
→ 2.01	0.55
- CCCn1c(C)cc(/C=C(\C#N)C(=O)N(C)Cc2ccc(Cl)c(Cl)c2)c1C
→ ·	0.25
- CSc1nnc2c(n1)OC(c1ccc(C)o1)Nc1ccccc1-2 (stereo not given)
→ -0.835	·
- NC(=S)n1ncc(C(=O)O)c1NC(=O)c1ccccc1Cl
→ ·	-0.45
- c1ccc(-c2nc3ccccn3c2NC2CCCC2)nc1
→ ·	-0.55
- COc1ccc(C2CC(C(F)(F)F)n3nc(C(=O)N4CCN(C(=O)c5ccccc5)CC4)c(Cl)c3N2)cc1OC (stereo not given)
→ 0.71	·
- CN(C)c1ccc(/C=C/C=c2\sc3nc4ccccc4n3c2=O)cc1
→ ·	-0.05
- O=c1[nH]c2ccc(NS(=O)(=O)c3ccc(Br)cc3)cc2[nH]1
→ 25.9	-0.2
- N#C/C(C(=S)Nc1ccccc1)=C1/NN=C(N2CCOCC2)N1c1ccccc1
→ ·	0.3
- CC1CCCN(C(=O)COc2ccc(-c3nc4ccccc4s3)cc2)C1 (stereo not given)
→ 4.36	0.3
- Cc1cc(-c2ccc(S(=O)(=O)NCCc3ccccc3)cc2)on1
→ -0.1	-0.45
- CC(C)(Oc1ccc2ccccc2c1)C(=O)O
→ 0.79	·
- N#Cc1ccc(C(=O)NCCc2ccccn2)cc1
→ ·	0.45
- COC(=O)c1ccncc1C(=O)NN(C)c1ncc(C(F)(F)F)cc1Cl
→ -0.555	·
- Cc1ccc(-n2cc[nH]c(=O)c2=O)cc1
→ -0.8	-0.95
- O=C1N/C(=N/c2ccccn2)SC1Cc1ccc(Cl)cc1 (stereo not given)
→ 0.415	·
- COc1ccc(CCn2c(SCC#N)nc3ccccc3c2=O)cc1OC
→ 0.34	-0.25
- CCOc1ccc(-c2[nH]nc3c2C(c2cccc(OC(=O)N4CCOCC4)c2)C(C#N)=C(N)O3)cc1OC (stereo not given)
→ 0.405	·
- COC(=O)c1ccc2c(c1)N(Cc1ccc(C)cc1)C(=O)C(OC(C)=O)S2=O (stereo not given)
→ 0.695	-0.15
- COc1ccc(C2C(C(=O)Nc3nc4ccccc4s3)=C(C)NC3=C2C(=O)CC(C)(C)C3)c(OC)c1 (stereo not given)
→ 38.7	·
- CC(C)NC(=O)c1ccccc1-c1ccccc1C(=O)NC(C)C
→ -0.88	-0.55
- Cn1cnnc1Sc1nc(CN2CCOCC2)nc2scc(-c3ccccc3)c12
→ ·	-0.95
- CSc1ccc(/C=C/[N+](=O)[O-])cc1
→ -0.955	·
- O=C(O)C1CSC(c2c(Cl)cccc2Cl)N1 (stereo not given)
→ -0.215	-1.25
- CC1CN=C(Nc2ccc(F)cc2F)S1 (stereo not given)
→ -0.18	0.7
- O=C(Nc1ccc(S(=O)(=O)N2CCCCC2)cc1)c1ccc(F)cc1
→ -0.01	-0.25
- Cc1ccc(S(=O)(=O)c2c(C)cc(-c3ccccc3)nc2N(C)N)cc1
→ 3.69	·

Gathered by group, those above containing a thiophene ring, fused or not (3)
Order of values – Ba CapD inh	AID504770
- CCCCCC1CCC(c2ccc(NC(=O)c3cccs3)cc2)CC1 (stereo not given)
→ -0.215	·
- COc1ccc(OC)c(NC(=O)c2cc3nc(-c4cccs4)cc(C(F)(F)F)n3n2)c1
→ 0.055	·
- Cn1cnnc1Sc1nc(CN2CCOCC2)nc2scc(-c3ccccc3)c12
→ ·	-0.95

Next section:
Order of values – Ba CapD inh	AID504770
- CCCCOc1ccc(C2CC(=O)C3=C(C2)c2c(ccc4ccccc24)NC3c2ccc([N+](=O)[O-])cc2)cc1 (stereo not given)
→ 0.495	·
- CCC(Sc1ncccc1C(=O)O)C(=O)N1CCCC1 (stereo not given)
→ 2.67	-0.05
- COc1ccc(C(NC(=O)Cc2ccccc2)c2ccc3cccnc3c2O)cc1OC (stereo not given)
→ 0.005	·
- CCn1c(C)[n+](CC)c2ccc(S(=O)(=O)NC)cc21
→ 29	0
- N#CC1(NC(=O)CSc2nnnn2-c2ccc(OC(F)(F)F)cc2)CCCC1
→ ·	-0.45
- O=C(Nc1cccn2c(-c3ccc(Cl)c(Cl)c3)cnc12)c1cccs1
→ 0.625	·
- CCCCOC(=O)c1ccc(N2C(=O)CC(N3CCC(C(N)=O)CC3)C2=O)cc1 (stereo not given)
→ 0.14	1.25
- CN(CC1COc2ccccc2O1)S(=O)(=O)c1csc(C(N)=O)c1 (stereo not given)
→ -0.165	-0.5
- CCOc1ccc(CCCN)cc1OCC
→ ·	-0.35
- NC(N)=NCCN1CCCCCCC1
→ -0.54&-1.04	0.25
- CCOC(=O)C(C#N)c1c(F)c(F)c(Br)c(F)c1F (stereo not given)
→ -1.25	-0.9
- CC(NC(=O)CN1CCc2ccccc2C1)c1ccccc1 (stereo not given)
→ ·	-0.75
- C/C(=N\O)C(C)(C)Nc1ccc2c(c1)OCO2
→ -0.655	-0.65
- CC(C)CCn1c(=O)c2ccccc2n2c(CCC(=O)N3CCC(C(N)=O)CC3)nnc12
→ 0.33	-0.4
- O=C(CC(c1ccccc1)c1ccccc1)NC1CCCC1
→ -0.295	0.1
- O=C(NC1CC1)C1Cc2ccccc2CN1S(=O)(=O)c1ccc(F)cc1 (stereo not given)
→ -1.06	0.65
- O=C(Oc1ccc(Br)cc1F)C1CC(=O)N(c2ccc3c(c2)OCCO3)C1 (stereo not given)
→ ·	-0.9
- COc1ccc(OCC(O)Cn2c(NCc3ccco3)nc3c2c(=O)[nH]c(=O)n3C)cc1 (stereo not given)
→ 0.1	·
- CCc1nc2sc3c(NCCO)ncnc3c2c2c1CCCC2
→ 40.7	-1.1
- CSc1ccc(S(=O)(=O)NC2CC2)cc1
→ 0.095	-0.2
- CCN1C(=O)C(=Cc2cccn2-c2ccc(O)cc2)C(=O)N(CC)C1=S
→ 16	0.45
- Cc1nc(C(=O)Nc2ccc(Cl)cc2)nn1-c1cccc(C(F)(F)F)c1
→ 0.835	·
- Cc1ccc(C)c(SCC(=O)Nc2cc(C)nn2-c2ccc(F)cc2)c1
→ -0.065	0.05
- COc1ccc(C(=O)OCC(=O)Nc2sc3c(c2C#N)CCC3)cc1OC
→ -0.245	0.6
- O=S(=O)(Nc1cccc2nsnc12)c1cccs1
→ -0.71	2.1
- O=C(NC1CCCC1)C1c2ccccc2C(=O)N2CCc3ccccc3C12 (stereo not given)
→ -0.305	-0.85
- CNC(=O)COC(=O)c1c2c(nc3ccccc13)CCCC2
→ ·	2
- CC(C)Sc1c(Cl)cccc1NC(=O)c1ccc(Cl)cc1
→ -0.27	·
- Cn1cnnc1SCC(=O)c1ccccc1
→ ·	-1.35
- O=C(NCC(c1ccc[nH]1)C(F)(F)F)Nc1ccccc1 (stereo not given)
→ -0.08	-0.35
- Cc1nc(-c2sc3ccccc3c2C)cs1
→ 0.235	·
- COC(=O)c1cnn(-c2c(Cl)cccc2Cl)c1C=C(C#N)C#N
→ 0.84	-1.7

Assay outcomes (PubChem)
